# Screening results: PubChem, National Center for Advancing Translational Sciences (NCATS)
# HPGD block: qHTS Assay for Inhibitors of HPGD (15-Hydroxyprostaglandin Dehydrogenase) | 15-hydroxyprostaglandin dehydrogenase [NAD(+)] (Homo sapiens), P15428 | purified HPGD, NADH fluorescence kinetic, PGE2 substrate | Potency, µM, for the others: at the top dose activity change, negative = inhibition, actives largely listed as inhibitors | hit rate 4.3% among 150,000 | AID 894, 2007; active = well fitted inhibition curve with a large enough effect (not every such curve was filed as active); inconclusive = small, poorly fitted or top-dose-only effect, or another doubt; inactive = no such curve, though single readings can be large or run the other way;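 also: top concentration of the series not given in the record; plate controls included wells without enzyme; inactives centre near -10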
# Target sequence (P15428 whole entry, looked up): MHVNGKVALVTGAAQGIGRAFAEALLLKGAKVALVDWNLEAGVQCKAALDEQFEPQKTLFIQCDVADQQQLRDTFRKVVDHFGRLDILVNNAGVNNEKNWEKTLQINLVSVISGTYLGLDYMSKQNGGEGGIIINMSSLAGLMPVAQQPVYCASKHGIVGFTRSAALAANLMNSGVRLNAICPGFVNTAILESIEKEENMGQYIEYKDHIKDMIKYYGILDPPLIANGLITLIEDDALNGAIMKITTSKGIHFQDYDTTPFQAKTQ
#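 NADH formation kinetics: reaction with 30 uM PGE2 and 1 mM NAD+ (final), 20 nM enzyme, Tris-HCl pH 8 with Tween 20, after 15 min compound preincubation at room temperature. Fluorescence change, last versus first of five reads.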
# Active calls of the source: *; ? = inconclusive; & = joins results of further samples. % is scaled to controls: 0 for no effect and ±100 for the full control effect; potency is read from the fitted curve at half-maximal effect. These rows are one share of the data; the hit share may differ from the screen's.
SMILES,HPGD block
CCCNC(=O)Cn1c(=O)/c(=C\c2ccc(-c3ccc([N+](=O)[O-])cc3)o2)s/c1=C\C(=O)C(C)(C)C,-11%
N#Cc1ccccc1Sc1ccccc1C(=O)Nc1ccc2ccccc2c1,?
COc1cc(Cl)nn(-c2ccccc2)c1=O,-12%
CC(O)c1cccc(NC2=CC(=O)CC(C)(C)C2)c1 (stereo unspecified),-9%
Cc1ccc(OCCCCNC(C)(C)C)c([N+](=O)[O-])c1,-4%
CCc1nnc(NC(=O)CSc2nnc(Cc3ccccc3)n2Cc2ccccc2)s1,-15%
COc1ccc(-n2c(SCC(=O)Nc3ccc4c(c3)OCO4)nc3ccccc3c2=O)cc1,-17%
COc1ccc(C(=O)N2CCC[C@@]3(CCN(Cc4cc(C(F)(F)F)cc(C(F)(F)F)c4)C3)C2)cc1,-4%
O=C(CN1C(=O)C2C3C=CC(C3)C2C1=O)N1CC(=O)N(CCc2ccccc2)C(=O)C1 (stereo unspecified),-4%
O=C(O)C1C2C=CC(C2)C1C(=O)NCCc1ccncc1 (stereo unspecified),-5%
O=C(O)CCN1C(=O)C(=C2CCCCCC2)SC1=S,-12%
COc1cc(NC(=O)c2ccco2)c(OC)cc1NC(=O)CCC(=O)Nc1cc(C)ccc1C,?
COc1ccc(-c2nc3ccccc3c(=O)n2CCCN2CCOCC2)cc1,-9%
Cc1ccc(-c2nnc(N3CCOCC3)c3ccccc23)cc1S(=O)(=O)NCC1CCCO1 (stereo unspecified),-4%
CS(=O)(=O)Nc1ccccc1C(=O)Nc1ccccc1Cl,?
COc1ccc(OC)c(NC(=O)CSc2nnc(CNc3ccc(F)cc3)o2)c1,-4%
CCOC(=O)CNC(=O)CSc1nnc(Cn2c(=O)sc3ccccc32)n1C,-1%
N#Cc1nc(COc2ccc(F)cc2)oc1N1CCN(Cc2ccccc2)CC1,-6%
O=c1c2cnn(-c3ccccc3)c2ncn1Cc1ccccc1,?
Cc1ccc(Cn2ccc(NC(=O)c3cc(-c4cccc(Cl)c4)on3)n2)cc1,?

# Gathered by group: the entries above with two or more sulfur atoms
SMILES,HPGD block
CCc1nnc(NC(=O)CSc2nnc(Cc3ccccc3)n2Cc2ccccc2)s1,-15%
O=C(O)CCN1C(=O)C(=C2CCCCCC2)SC1=S,-12%
CCOC(=O)CNC(=O)CSc1nnc(Cn2c(=O)sc3ccccc32)n1C,-1%

# Entries from the list above with nitrogen in an aromatic ring (twelve):
SMILES,HPGD block
CCCNC(=O)Cn1c(=O)/c(=C\c2ccc(-c3ccc([N+](=O)[O-])cc3)o2)s/c1=C\C(=O)C(C)(C)C,-11%
COc1cc(Cl)nn(-c2ccccc2)c1=O,-12%
CCc1nnc(NC(=O)CSc2nnc(Cc3ccccc3)n2Cc2ccccc2)s1,-15%
COc1ccc(-n2c(SCC(=O)Nc3ccc4c(c3)OCO4)nc3ccccc3c2=O)cc1,-17%
O=C(O)C1C2C=CC(C2)C1C(=O)NCCc1ccncc1 (stereo unspecified),-5%
COc1ccc(-c2nc3ccccc3c(=O)n2CCCN2CCOCC2)cc1,-9%
Cc1ccc(-c2nnc(N3CCOCC3)c3ccccc23)cc1S(=O)(=O)NCC1CCCO1 (stereo unspecified),-4%
COc1ccc(OC)c(NC(=O)CSc2nnc(CNc3ccc(F)cc3)o2)c1,-4%
CCOC(=O)CNC(=O)CSc1nnc(Cn2c(=O)sc3ccccc32)n1C,-1%
N#Cc1nc(COc2ccc(F)cc2)oc1N1CCN(Cc2ccccc2)CC1,-6%
O=c1c2cnn(-c3ccccc3)c2ncn1Cc1ccccc1,?
Cc1ccc(Cn2ccc(NC(=O)c3cc(-c4cccc(Cl)c4)on3)n2)cc1,?

# Next section.
SMILES,HPGD block
CCCCCCOc1ccc(N2C(=O)CC(N3CCC(C(=O)OCC)CC3)C2=O)cc1 (stereo unspecified),8%
NCCNC[C@H](O)CO,-9%
C=CCn1cnc2c(c1=O)c1nc3ccccc3nc1n2-c1ccccc1,?
COc1ccc(-c2ccc(OC)cc2C(=O)O)cc1,-4%
Cn1ncc(N=Cc2ccccc2O)c1C(=O)N1CCOCC1,-8%
Cc1ccccc1C(=O)NC(=S)Nc1ccc(Cc2ccncc2)cc1,-16%
CCNc1nc(N2CCOCC2)nc(N(c2ccccc2)c2ccccc2)n1,4%
CC(=O)Nc1c(C(=O)N2CCCCCC2)cnn1-c1ccccc1Cl,14µM*
CC(C)(C)NC(=O)NC(=O)COC(=O)C1=COCCO1,7%
O=C(Nc1ccccc1)c1ccccc1OCC(O)CN1C(=O)c2ccccc2S1(=O)=O (stereo unspecified),-17%
O=C1Nc2ccccc2SC(c2ccccc2)C1O (stereo unspecified),28µM*
COCCCNC(=O)Cn1nnc(-c2ccc(NC(=O)c3ccccc3OC)cc2)n1,?
CCOC(=O)C1CCCN(Cc2ccccc2Cl)C1 (stereo unspecified),-1%
Cc1ccc(S(=O)(=O)N2CCOCC2)cc1C(=O)NCc1ccc(F)cc1,3%
CCOC(=O)N1CCN(C(=O)c2cccc(NS(=O)(=O)c3ccc(F)c(F)c3)c2)CC1,-2%
COc1ccc(CCNC(=O)CCc2ccc(S(=O)(=O)NC(C)C)cc2)cc1OC,-11%
CCS(=O)(=O)N1CCN(S(=O)(=O)c2ccc(F)cc2)CC1,3%
CC1(C)Cn2c(nnc2-c2cccc(O)c2)S1,16µM*
O=C(O)CSc1nc2c(cnn2-c2ccccc2)c(=O)n1-c1ccc(Br)cc1,14µM*
Cc1ccc(S(=O)(=O)Nc2ccc(NC(=O)Nc3cccc(C(F)(F)F)c3)cc2)cc1,-8%
CC(=O)Nc1ccc(NC(=O)CN2CCCC(C)C2)c(Cl)c1 (stereo unspecified),-14%
O=C(CCS(=O)(=O)c1ccccc1)Nc1nccs1,-2%
NCCCC[C@@H]1NC(=O)c2cc([N+](=O)[O-])cc(F)c2NCCCC[C@@H](C(N)=O)NC(=O)CNC1=O,-10%
CCCc1nc2ccccc2c(C(=O)OCc2nnc(-c3cc(OC)c(OC)c(OC)c3)o2)c1CC,-28%
O=[N+]([O-])c1ccc2[nH]nc(-c3ccccc3)c2c1,14µM*
CC(C)=CCC1=C(O)c2ccccc2C(=O)C1=O,-17%&-23%
O=C(O)C(Cc1ccccc1)n1cnnn1 (stereo unspecified),-6%
CCCCc1nc2c(c3c1C[C@H](C)OC3)CN(C(=O)c1ccco1)CC2,-7%
CN(C(=O)Cc1noc2ccccc12)c1ccccc1,-13%
O=C1CC(C2CCCO2)C(=O)N1c1cccc(Cl)c1 (stereo unspecified),-8%
N#C/C(=C\c1ccc(-c2ccc(C(=O)O)cc2)o1)C(=O)NCC1CCCO1 (stereo unspecified),?
c1ccc(Cn2nnc3cnccc32)cc1,-23%
CCN(C(=O)COC(=O)C(Cc1ccccc1)N1C(=O)c2ccccc2C1=O)C1CCS(=O)(=O)C1 (stereo unspecified),-6%
Cc1ccc(NC(=O)c2ccc(NCCN)c([N+](=O)[O-])c2)cc1Cl,-14%
COc1ccc(NS(=O)(=O)c2ccc(N/N=C(\C)c3ccncc3)c([N+](=O)[O-])c2)cc1,6.3µM*
COC(=O)c1ccc(CON2C(=O)c3ccccc3C2=O)cc1,-13%
Cc1ccc(CNC(=O)CCCn2c(=O)c3ccccc3n(CC(=O)NCc3ccco3)c2=O)cc1,-8%
CCOC(=O)C1CCN(Cc2cn[nH]c2-c2ccc(C)cc2)CC1,-10%
CSc1nc2ccccc2cc1/C=C(\C#N)c1ccc(Cl)c(Cl)c1,-20%
COc1ccc(-c2nnc(NC(=O)CSc3ccccc3)s2)cc1OC,?
COc1cc([N+](=O)[O-])ccc1NC(=S)Nc1cc(C(=O)OC(C)C)cc(C(=O)OC(C)C)c1,-27%
CCc1cc(=O)n2c([nH]c3ccccc32)c1C#N,?
COc1ccc(C2(CNC(=O)c3cccc([N+](=O)[O-])c3)CCOCC2)cc1,-8%
COC(=O)C1[C@H]2C(=O)N(Cc3cccs3)C[C@]23C=C[C@H]1O3 (stereo partly specified),-2%
Cc1cc(/C=N/NC(=O)CC2(C)OCCO2)c(C)n1-c1cc(Cl)cc(Cl)c1,-9%
Fc1ccccc1CSc1nncn1NCc1cccs1,-1%
Cc1ccccc1/C=C/C1=NCCN1,5%
COc1cccc(NC(=O)C2C3C=CC(O3)C2C(=O)NCc2cccnc2)c1 (stereo unspecified),-8%
CSc1ncc(C(=O)O)n1-c1ccc(F)cc1,0%
Cc1cccc(N2C(=O)CC(N(O)c3ccccc3)C2=O)c1 (stereo unspecified),-9%
CCOC(=O)C1CC=C(Cl)CC1C(=O)Nc1nccs1 (stereo unspecified),-1%
O=S1(=O)[C@H]([C@H]2CC3c4ccccc4C2c2ccccc23)[C@@H](N2CCCCC2)[C@@H]1c1ccccc1,-12%
CC(C)(C)NC(=O)C(c1ccccn1)N(C(=O)C1CSC(=O)C1)c1ccc(F)cc1 (stereo unspecified),-5%
Cc1ccc(CN2CCN(/N=C\C(Br)=C\c3ccccc3)CC2)cc1,-17%
CN1CCC(n2[nH]c(-c3ccccc3)c(Cc3ccccc3)c2=O)CC1,-2%
CC(=O)N1CN(C2CC(C)(C)NC(C)(C)C2)Cc2c1sc1c2CCCC1,-13%
O=C(Nc1nc(-c2ccccc2)cs1)c1ccc(Br)o1,10%
COc1ccc(C2=NOC(C(=O)NC3CCCCC3)C2)cc1OC (stereo unspecified),-9%
N#Cc1ccsc1NC(=O)CN1CCN(c2ccc(O)cc2)CC1,1%
Cc1ccc(-c2nnc(NCc3nc4ccccc4[nH]3)c3ccccc23)cc1S(=O)(=O)N1CCCCC1,?
# Next part.
SMILES,HPGD block
Cc1cccc(N2CCN(C(=O)C3CCCN(S(=O)(=O)c4cnc[nH]4)C3)CC2C)c1 (stereo unspecified),-13%
COc1ccc2[nH]c(=O)c(CN(Cc3ccco3)Cc3nnnn3Cc3ccccc3)cc2c1,?
Brc1ccc(-c2nc3ccccc3s2)s1,?
CC(C)(C)C(=O)NC(=S)N1CCOCC1,-1%
CC(C)(C)c1ccc(S(=O)(=O)CC(O)CSc2nc3c(cc2C#N)CCCC3)cc1 (stereo unspecified),?
C[N+]1(CCCCCCC(=O)/C=N/O)CCCCCC1,1%
COc1ccc(C(=O)Nc2ccccc2C(=O)O)cc1Cl,-16%
CN(C)S(=O)(=O)c1ccc2c(c1)nc(CCC(=O)NCC1CCCCC1)n2C,-2%
COC(=O)c1ccc(CSc2ncnc3sc(C)c(C)c23)o1,-10%
COC(=O)[C@@]1(Cc2ccc(OC)cc2)[C@H]2c3cc(C(=O)N4CCCC4)n(Cc4cc(F)cc5c4OCOC5)c3C[C@H]2CN1C(=O)c1ccccc1,-6%
O=S1(=O)c2cccc3cccc(c23)N1Cc1ccc(-c2nnco2)cc1,?
COc1ccc(C(=O)NCc2ccccc2)cc1Br,-16%
COC(=O)c1cccc(Cn2c(Cl)c(/C=N/Nc3ccccc3C)sc2=O)c1,?
CCC(=O)Oc1ccc(C(CC)C(CC)c2ccc(OC(=O)CC)cc2)cc1 (stereo unspecified),-11%
CCOC(=O)c1cccc(S(=O)(=O)N2CCCC2)c1,-6%
COc1ccc(-c2[nH]c(-c3cccc(OC)c3)nc2SCC(=O)NC2CCCC2)cc1,?
COC(=O)c1cc(NC(=O)C2COc3ccccc3O2)cc(C(=O)OC)c1 (stereo unspecified),-19%
O=S1(=O)CC(NCc2ccccc2)C(Nc2ccccc2)C1 (stereo unspecified),-8%
Cc1nc2cc3c(cc2c(C)c1C(=O)OC(C)C)OCO3,?
C=CCNc1nc(-c2ccccc2)c(C(=O)OCC)cc1C#N,?

# Another view of part of the listing above.
mol	HPGD block
COC(=O)[C@@]1(Cc2ccc(OC)cc2)[C@H]2c3cc(C(=O)N4CCCC4)n(Cc4cc(F)cc5c4OCOC5)c3C[C@H]2CN1C(=O)c1ccccc1	-6%
C[N+]1(CCCCCCC(=O)/C=N/O)CCCCCC1	1%
COC(=O)c1cccc(Cn2c(Cl)c(/C=N/Nc3ccccc3C)sc2=O)c1	?
COC(=O)c1cc(NC(=O)C2COc3ccccc3O2)cc(C(=O)OC)c1 (stereo unspecified)	-19%

# Going on with the list:
SMILES,HPGD block
Clc1ccc(-c2nc3cnccn3c2Nc2ccc3c(c2)OCO3)cc1,-28%
CC1CCc2c(sc3ncnc(SCC(=O)c4ccccc4)c23)C1 (stereo unspecified),-10%
Cc1ccc(NC(=O)c2ccc(Nc3c([N+](=O)[O-])cc([N+](=O)[O-])cc3[N+](=O)[O-])cc2)cc1,-7%
C[C@@H](CCc1ccccc1)NC[C@H](O)c1ccc(O)c(C(N)=O)c1,?
COC(=O)CCN(C(C)=O)c1ccc(N)cc1,-6%
Cc1cccc(NC(=O)CSc2nnc(-c3ccccc3)n2N)c1,-14%
O=C(Nc1nc2ccc(F)cc2s1)C1=NN(c2ccccc2)C(=O)CC1,-15%
COc1ccc(-c2nc(SCC(=O)NC3CCCC3)c(-c3ccc(OC)cc3)[nH]2)cc1,-21%
CCN1CCN(C(=O)CN(Cc2ccccc2)S(C)(=O)=O)CC1,-2%
Oc1c(C(c2cccs2)N2CCOCC2)sc2ncnn12 (stereo unspecified),-8%
COc1cccc(NC(=O)CSc2nnc(-c3cccs3)n2C)c1,-6%
CC(Cl)C(=O)Nc1ncc(C(F)(F)F)cc1Cl (stereo unspecified),-20%
CCN1CCN(Cc2c(O)ccc3c(=O)c(-c4ccc(OC)c(OC)c4)c(C(F)(F)F)oc23)CC1,?
c1ccc2nc(C3=NCCN3)ccc2c1,-23%&-16%
CCCN(CCC)CC(O)CN(c1cc([N+](=O)[O-])ccc1OC)S(=O)(=O)c1ccccc1 (stereo unspecified),-10%
CCCc1cc(=O)oc2c(C)c(O)c(CN3CCCCC3)cc12,?
O=C(Cc1coc(-c2ccc(F)cc2)n1)NC1CCCCC1,18µM*
Cc1cc2ccccn2c1C(C[N+](=O)[O-])c1ccc(N(C)C)cc1 (stereo unspecified),-19%
Cc1cc(N)n(-c2ccc3ccccc3c2)n1,-5%
